Assay outcomes (PubChem)
Vaccinia inh: blocks a specific stage of Vaccinia orthopoxvirus infection, primary screen, cell-based, single point; Vaccinia-infected cells, mCherry/Venus stage reporter fluorescence; stronger effect = lower value; some inactives read as strong as hits; activity change (mCherry), % (no concentration beside the values); actives 0.01% (n = 89,000);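 active = mCherry past -33% and 40 or more points under the early reporter, replicates agreeing; inconclusive = past -33% without that gap or agreement; tested in A549 cells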;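 also: scaled between vehicle wells and reference inhibitor wells; 23 nL library stock went into each well; one replicate is shown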
Vaccinia inh Venus: also measured in Vaccinia inh; calls as there; activity change (Venus), %; measured here: Venus reporter, other viral stage;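 negative = less Venus signal; first of two replicates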
* = called active by the depositor; ? = inconclusive; / = not tested or not shown. Not all compounds are listed. The share of hits here may be higher or lower than overall.

SMILES	Vaccinia inh	Vaccinia inh Venus
CC(C)NC(=O)Nc1ccc2c(c1)C(=O)N([C@@H](C)CO)C[C@H](C)[C@@H](CN(C)C(=O)c1ccncc1)OCCCC[C@H](C)O2	36	9
CN(C[C@H]1N[C@@H](CO)[C@@H]1c1ccc(C2=CCCC2)cc1)C(=O)c1ccccn1	15	15
CC(C)NC(=O)Nc1cccc2c1O[C@@H](CN(C)Cc1ccc(Oc3ccccc3)cc1)[C@H](C)CN([C@H](C)CO)C2=O	-19	-19
Cc1ccc(S(=O)(=O)Nc2ccc3c(c2)CC(=O)N([C@@H](C)CO)C[C@H](C)[C@@H](CN(C)Cc2ccc(Oc4ccccc4)cc2)O3)cc1	?	/
N#C[C@H]1[C@@H](c2ccccc2)[C@@H](CO)N1S(=O)(=O)c1cccc(F)c1	-4	-11
CO[C@@H](CN(C)C(=O)c1ccccc1F)[C@@H](C)CN([C@H](C)CO)S(=O)(=O)c1ccc(F)cc1	17	9
CNC[C@@H]1OCCCC[C@@H](C)Oc2ccc(NS(=O)(=O)c3ccc(F)cc3)cc2C(=O)N([C@@H](C)CO)C[C@H]1C	10	11
N#C[C@H]1[C@@H](c2ccccc2C2=CCCCC2)[C@H](CO)N1C(=O)C1CCOCC1	9	4
CCC(=O)N1[C@H](CN(C)C(C)=O)[C@H](c2ccc(C3=CCCCC3)cc2)[C@@H]1CO	-5	7
CC(C)NC(=O)N(C)C[C@@H]1Oc2ccc(NC(=O)NC3CCCCC3)cc2C(=O)N([C@@H](C)CO)C[C@@H]1C	11	8
COc1ccc(NC(=O)Nc2ccc3c(c2)[C@@H]2C[C@@H](CC(=O)NCc4ccncc4)O[C@H](CO)[C@@H]2O3)cc1	1	3
COc1ccc(-c2cnc3c(c2)C(=O)N([C@@H](C)CO)C[C@H](C)[C@@H](CN(C)C(=O)NC2CCCC2)O3)cc1	8	7
CO[C@@H]1CN(C)C(=O)c2cc(NC(C)=O)ccc2OC[C@@H](C)N(C(=O)CN2CCOCC2)C[C@H]1C	10	7
CCCNC(=O)Nc1ccc2c(c1)OC[C@@H](C)N(C(C)=O)C[C@H](C)[C@@H](OC)CN(C)C2=O	12	8
Cc1ccccc1-c1ccccc1[C@@H]1[C@H](C#N)N(C(=O)c2ccc(F)cc2)[C@H]1CO	7	2
Cc1ccc(S(=O)(=O)N(C)C[C@H]2Oc3ccc(NC(=O)Nc4ccc(C(F)(F)F)cc4)cc3CC(=O)N([C@H](C)CO)C[C@@H]2C)cc1	-31	-22
CN1C[C@H]2[C@@H](c3ccccc31)[C@@H](CO)N2C(=O)c1cccnc1	18	9
C/C=C/c1cnc2c(c1)C(=O)N([C@H](C)CO)C[C@@H](C)[C@H](CN(C)S(=O)(=O)c1ccccc1F)O2	-6	-7
C[C@H](CO)N1C[C@H](C)[C@@H](CN(C)Cc2ccc(Oc3ccccc3)cc2)Oc2c(NC(=O)c3ccncc3)cccc2C1=O	19	8
CO[C@H]1CN(C)C(=O)c2ccc(NC(C)=O)cc2OC[C@H](C)N(C(=O)c2cccnc2)C[C@@H]1C	0	2
COc1ccccc1-c1ccc2n(c1=O)C[C@H]1[C@H](CO)[C@@H](C(=O)Nc3nccs3)N(CC3CC3)[C@@H]21	5	10
C[C@@H]1CN([C@H](C)CO)C(=O)Cc2cc(NC(=O)Nc3ccc(C(F)(F)F)cc3)ccc2O[C@@H]1CN(C)Cc1ccc(C(F)(F)F)cc1	?	/
O=C(NC1CCCC1)N1CCCCN2[C@H](C1)[C@@H](c1ccc(-c3cncnc3)cc1)[C@@H]2CO	18	26
C[C@@H]1CCCCO[C@@H](CN(C)C(=O)CCC(F)(F)F)[C@H](C)CN([C@@H](C)CO)C(=O)c2cc(NC(=O)c3ccccc3)ccc2O1	-26	-30
CN1CCN(C(=O)C[C@@H]2C=C[C@H](NC(=O)Cc3ccccn3)[C@H](CO)O2)CC1	11	4
O=C(Nc1cc(F)ccc1F)N[C@H]1CC[C@@H](CCn2cc(C3CC3)nn2)O[C@@H]1CO	-6	0
CC(=O)N(C)C[C@H]1Oc2ncc(C#CC(C)(C)O)cc2C(=O)N([C@H](C)CO)C[C@H]1C	10	14
C[C@@H]1CN([C@@H](C)CO)C(=O)c2cccc(NC(=O)c3nc4ccccc4s3)c2O[C@@H]1CN(C)S(=O)(=O)c1cccs1	-3	-9
C/C=C/c1ccc([C@H]2[C@H](CO)N3C(=O)CN(C(=O)c4cccc(F)c4)C[C@@H]23)cc1	-4	-5
C[C@H]1CN([C@@H](C)CO)C(=O)c2cc(NS(=O)(=O)c3cn(C)cn3)ccc2O[C@@H]1CN(C)Cc1ccc(Oc2ccccc2)cc1	11	-3
CN1C(=O)c2cc(NC(=O)C3CCCCC3)ccc2OC[C@H]2O[C@H](CC(=O)NCCc3ccncc3)CC[C@H]21	1	3
C[C@H]1CN([C@@H](C)CO)S(=O)(=O)c2ccc(Br)cc2O[C@H]1CN(C)C(=O)C1CC1	10	17
O=C(C1=C[C@@H](c2ccc(Br)cc2)C[C@@H](OCCCCO)O1)N1CCOCC1	10	7
C[C@@H]1CCCCO[C@H](CN(C)C)[C@@H](C)CN([C@H](C)CO)C(=O)c2cc(NS(=O)(=O)c3ccc(Cl)cc3)ccc2O1	11	5
O=C(C[C@H]1C[C@@H]2c3cc(NC(=O)NC4CCCCC4)ccc3O[C@@H]2[C@H](CO)O1)NCCc1ccccc1	8	5
CC(C)NC(=O)N(C)C[C@H]1Oc2ccc(NC(=O)CCCCCC(=O)Nc3ccccc3N)cc2CC(=O)N([C@H](C)CO)C[C@H]1C	10	-5
CO[C@H]1CN(C)C(=O)c2ccc(NC(=O)Nc3cccc(F)c3)cc2OC[C@@H](C)N(C)C[C@@H]1C	-32	-17
C[C@H]1CN([C@@H](C)CO)C(=O)c2cccc(NS(=O)(=O)c3cccs3)c2O[C@@H]1CN(C)S(=O)(=O)c1ccccc1	7	3
C[C@H](CO)N1C[C@H](C)[C@H](CN(C)Cc2ccncc2)Oc2ccc(NC(=O)Cn3cnnn3)cc2CC1=O	1	-4
O=C(C[C@H]1C=C[C@@H](NC(=O)Nc2ccccc2F)[C@@H](CO)O1)NCc1ccc(F)cc1	2	3
O=C(C[C@H]1C[C@H]2c3cc(NC(=O)Nc4ccc(C(F)(F)F)cc4)ccc3O[C@H]2[C@H](CO)O1)NCc1ccc2c(c1)OCO2	1	6
C[C@@H]1CN([C@H](C)CO)C(=O)c2cc(NC(=O)CCC(F)(F)F)ccc2O[C@@H](C)CCCCO[C@@H]1CN(C)S(=O)(=O)c1ccc(Cl)cc1	-25	-17
C[C@@H]1CN([C@@H](C)CO)C(=O)c2cc(N(C)C)ccc2O[C@@H](C)CCCCO[C@H]1CN(C)Cc1ccccc1	-19	-10
COc1ccc2c3c(n(C)c2c1)[C@H](CO)N(Cc1ccccc1OC)CC31CCN(CC2CCOCC2)CC1	-8	-11
C[C@H](CO)N1C[C@H](C)[C@H](CN(C)S(C)(=O)=O)Oc2ccc(NC(=O)Nc3ccccc3)cc2C1=O	3	1

A different layout for 2 compounds above.
SMILES | Vaccinia inh | Vaccinia inh Venus
O=C(C[C@H]1C[C@H]2c3cc(NC(=O)Nc4ccc(C(F)(F)F)cc4)ccc3O[C@H]2[C@H](CO)O1)NCc1ccc2c(c1)OCO2 | 1 | 6
C[C@@H]1CN([C@H](C)CO)C(=O)c2cc(NC(=O)CCC(F)(F)F)ccc2O[C@@H](C)CCCCO[C@@H]1CN(C)S(=O)(=O)c1ccc(Cl)cc1 | -25 | -17

Additional records
SMILES	Vaccinia inh	Vaccinia inh Venus
CNC[C@@H]1OCc2ccccc2-c2c(n(C)c3ccccc23)C(=O)N([C@H](C)CO)C[C@@H]1C	-21	-13
COC(=O)C[C@@H]1C[C@@H]2c3cc(NS(=O)(=O)c4cccc(OC)c4)ccc3O[C@@H]2[C@@H](CO)O1	11	12
COc1ccc2c3c([nH]c2c1)[C@H](CO)N(C(=O)CC1CC1)CC31CN(Cc2ccncc2)C1	14	12
CO[C@H]1CN(C)C(=O)c2cc(NC(=O)C3CC3)ccc2OC[C@@H](C)NC[C@@H]1C	13	2
COc1ccc(S(=O)(=O)Nc2ccc3c(c2)C(=O)N([C@H](C)CO)C[C@H](C)[C@H](CN(C)Cc2ccc(C(F)(F)F)cc2)O3)cc1	20	17
O=C(C[C@@H]1CC[C@@H](NC(=O)c2cccnc2)[C@H](CO)O1)NCc1ccc(Cl)c(Cl)c1	-13	-8
C[C@H](CO)N1C[C@H](C)[C@@H](CN(C)C)Oc2c(NS(=O)(=O)c3cn(C)cn3)cccc2C1=O	6	5
C[C@@H]1CN([C@H](C)CO)C(=O)c2cc(NC(=O)NC3CCCCC3)ccc2O[C@H]1CN(C)S(=O)(=O)c1cccs1	1	4
Cc1noc(C)c1S(=O)(=O)N(C)C[C@@H]1OCCCC[C@@H](C)Oc2ccc(NC(=O)Nc3ccc(F)cc3)cc2C(=O)N([C@@H](C)CO)C[C@H]1C	-4	10
CC(C)NC(=O)N(C)C[C@@H]1Oc2c(NS(=O)(=O)c3ccc(F)cc3)cccc2C(=O)N([C@@H](C)CO)C[C@@H]1C	21	11
C/C=C/c1ccc([C@H]2[C@@H](CO)N(C(C)=O)[C@@H]2CN(CCC)C(=O)C2CCC2)cc1	-6	-11
Cc1noc(C)c1NC(=O)N(C)C[C@H]1OCCCC[C@H](C)Oc2ccc(NC(=O)CCC(F)(F)F)cc2C(=O)N([C@@H](C)CO)C[C@@H]1C	9	-6
Cc1cccc(S(=O)(=O)N2CCCCN3[C@H](C2)[C@H](c2ccc(C#C[C@@H](C)O)cc2)[C@@H]3CO)c1	-6	-14
O=C(C[C@H]1CC[C@H](NC(=O)c2ccc(F)cc2)[C@H](CO)O1)NCc1ccncn1	9	-2
C[C@@H]1CN([C@H](C)CO)C(=O)c2cc(N(C)C)ccc2O[C@H]1CN(C)Cc1ccc(C(=O)O)cc1	-1	-1

Complete entries from above.
CNC[C@@H]1OCc2ccccc2-c2c(n(C)c3ccccc23)C(=O)N([C@H](C)CO)C[C@@H]1C reads Vaccinia inh = -21; Vaccinia inh Venus = -13
CO[C@H]1CN(C)C(=O)c2cc(NC(=O)C3CC3)ccc2OC[C@@H](C)NC[C@@H]1C reads Vaccinia inh = 13; Vaccinia inh Venus = 2
O=C(C[C@H]1CC[C@H](NC(=O)c2ccc(F)cc2)[C@H](CO)O1)NCc1ccncn1 reads Vaccinia inh = 9; Vaccinia inh Venus = -2

Following part:
SMILES	Vaccinia inh	Vaccinia inh Venus
CO[C@H]1CN(C)C(=O)c2ccc(NC(=O)c3cccc(F)c3)cc2OC[C@H](C)NC[C@@H]1C	-3	1
C[C@@H]1CN([C@@H](C)CO)C(=O)CCCn2cc(nn2)CO[C@H]1CN(C)S(=O)(=O)c1ccc(F)cc1	6	8
COc1ccc(NC(=O)N2C[C@H](O)COC[C@@H]3O[C@@H](CC(=O)NCc4ccncn4)CC[C@H]32)cc1	9	13
O=C(NC1CCCCC1)N[C@H]1CC[C@H](CCNS(=O)(=O)c2ccc(F)cc2)O[C@@H]1CO	-12	0
CCCNC(=O)[C@@H]1[C@@H](CO)[C@@H]2Cn3c(ccc(C4=CCCC4)c3=O)[C@@H]2N1CCC(F)(F)F	1	16
COc1ccc(CN(C)C[C@H]2Oc3c(NC(=O)c4ccc(-c5nccs5)cc4)cccc3C(=O)N([C@@H](C)CO)C[C@H]2C)cc1	?	/
C[C@@H]1CN([C@@H](C)CO)C(=O)c2cc(C#CC3(O)CCCC3)cnc2O[C@H]1CN(C)Cc1ccncc1	24	15
O=C(N[C@H]1CC[C@H](CCNS(=O)(=O)c2ccc(Cl)cc2)O[C@H]1CO)c1cccnc1	-2	-1
CO[C@@H]1CN(C)C(=O)c2ccc(NC(=O)C3CC3)cc2OC[C@H](C)N(C(=O)c2cnccn2)C[C@@H]1C	-6	-8
CC(=O)N(C)C[C@@H]1Oc2ncc(C#Cc3ccncc3)cc2C(=O)N([C@H](C)CO)C[C@H]1C	15	7
C[C@H]1CN([C@@H](C)CO)C(=O)c2cc(-c3ccc(C(=O)N(C)C)cc3)cnc2O[C@@H]1CN(C)C(=O)C1CC1	11	7
C[C@@H]1CCCCO[C@H](CN(C)C)[C@H](C)CN([C@@H](C)CO)C(=O)c2cc(NS(=O)(=O)c3ccccc3)ccc2O1	-15	-1
O=C(C[C@@H]1CC[C@H](NC(=O)C2CCC2)[C@@H](CO)O1)Nc1nccs1	6	6
C[C@@H]1CN([C@@H](C)CO)C(=O)c2cc(NC(=O)Nc3cccc4ccccc34)ccc2O[C@H]1CN(C)Cc1ccc(Cl)c(Cl)c1	3	2
C[C@H](CO)N1C[C@H](C)[C@H](CN(C)Cc2ccc3c(c2)OCO3)Oc2ccc(NC(=O)NC3CCCCC3)cc2C1=O	2	-7
Cc1noc(C)c1S(=O)(=O)Nc1ccc2c(c1)CC(=O)N([C@H](C)CO)C[C@H](C)[C@H](CN(C)CC1CC1)O2	0	12
O=C(C[C@@H]1CC[C@@H]2[C@H](COC[C@@H](O)CN2C(=O)Nc2ccc(Cl)c(Cl)c2)O1)NCc1ccc(Cl)c(Cl)c1	?	/
C[C@@H]1CN([C@H](C)CO)C(=O)c2cc(NC(=O)Nc3ccc4c(c3)OCO4)ccc2O[C@@H](C)CCCCO[C@@H]1CN(C)C(=O)C1CCCCC1	-14	-12
